# PABP polyA inh: blocks human PABP binding to poly(A) RNA; P11940; fluorescence polarization; inhibition, % at 35 µM; actives 1% (n = 290,000); AID 2014;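 active = 50% or more with normal probe brightness, or confirmed in later tests; inconclusive = above 50% with abnormal brightness, or retests that disagree; inactive = below 50% or failed in later tests; about a fifth of its hits are not listed in these tables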;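 also: calls also rest on retests at 20 µM and on dose response follow-up; controls were probe without protein and protein plus probe with vehicle; some compounds called inactive have numbers as strong as hits; many hits fall short of the cut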
# Target sequence (P11940 whole entry, looked up): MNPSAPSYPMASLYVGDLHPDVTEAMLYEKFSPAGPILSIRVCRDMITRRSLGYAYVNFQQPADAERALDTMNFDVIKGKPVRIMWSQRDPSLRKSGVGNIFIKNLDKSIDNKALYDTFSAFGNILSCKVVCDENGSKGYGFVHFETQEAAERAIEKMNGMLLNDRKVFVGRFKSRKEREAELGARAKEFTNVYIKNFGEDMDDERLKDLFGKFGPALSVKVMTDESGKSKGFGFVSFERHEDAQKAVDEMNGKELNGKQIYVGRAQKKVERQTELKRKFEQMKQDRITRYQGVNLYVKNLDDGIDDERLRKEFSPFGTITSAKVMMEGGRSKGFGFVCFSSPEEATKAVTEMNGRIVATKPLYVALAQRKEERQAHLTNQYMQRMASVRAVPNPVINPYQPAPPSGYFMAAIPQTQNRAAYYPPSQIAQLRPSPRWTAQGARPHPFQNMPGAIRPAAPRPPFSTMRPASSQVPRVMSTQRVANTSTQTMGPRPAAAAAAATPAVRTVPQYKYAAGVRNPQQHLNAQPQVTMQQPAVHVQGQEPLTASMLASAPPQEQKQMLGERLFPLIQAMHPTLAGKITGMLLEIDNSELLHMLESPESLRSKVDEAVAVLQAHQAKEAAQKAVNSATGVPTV
# UUG fidelity: yeast start codon fidelity modulation; AID 602363; activity score, % at 18.7 µM; S. cerevisiae UUG-firefly luciferase reporter, luminescence/redox ratio; actives 0.13% (n = 350,000);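 active = replicate mean at a twofold rise or more, about +100% in these data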;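 also: firefly luciferase made from a UUG start codon reports start codon fidelity; reporter light over untreated wells divided by growth signal over untreated wells; some hits fall short of that in this replicate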
# Env fusion inh: inhibitors of HIV Env-mediated cell fusion | HeLa-JRFL Env/CEM21 cell fusion, luciferase | inhibition, % at 12.3 µM | actives 1.1% (n = 360,000) | AID 651610;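 active = mean replicate inhibition score of at least 50 and every replicate individually at or above 50; inconclusive = only one of the two criteria met; inactive = mean below 50 and not all replicates reaching 50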;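 also: 0% = plate neutral controls and 100% = maraviroc near 300 nM; one replicate is shown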
# MT1-MMP act inh: MT1-MMP (human) activation inhibition; P50281; HT1080 RFP-PRO-GFP cells, GFP/RFP ratio fluorescence, overnight; percent of plate control window, DMSO zero; GFP/RFP ratio change, % at 20 µM; actives 0.061% (n = 360,000); AID 651647;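 active = GFP/RFP ratio change of at least 30% with cell ATP level not reduced by more than half and red fluorescence within 50% of control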; also: strong numbers were not always called active
#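 Assay system: HT1080 RFP-PRO-GFP cells | Dosing: 20 µM single dose, 1% DMSO | Incubation: Cells overnight before dosing, compound overnight, 37 °C, 5% CO2 | Evaluation: GFP/RFP fluorescence ratio | Control set: DMSO-only wells and HT1080 RFP-L50D-GFP cell wells as references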
# Rce1 inhib: yeast Ras-converting enzyme inhibition; Q03530; yeast membranes, quenched prenylated peptide cleavage fluorescence; AID 2563; actives 0.27% (n = 290,000); calls only;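 active = fall in fluorescence gain of 50% or more versus controls, with final raw signal at or below 3038400; inconclusive = same 50% fall but final raw signal above 3038400; inactive = fall in fluorescence gain under 50%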;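 also: plate controls were neutral control wells for no effect and wells lacking membranes for full effect; tested at 10 µM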
# eIF4H inh: inhibitors of RNA binding by human eIF4H. actives 0.94% (n = 290,000). eIF4H fluorescence polarization binding assay. inhibition, % at 35 µM;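 active = 50% or more with normal probe brightness, or confirmed in later tests; inconclusive = above 50% with abnormal brightness, or retests that disagree; inactive = below 50% or failed in later tests; about a fifth of its hits are not listed in these tables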;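 also: calls also rest on retests at 20 µM and on dose response follow-up; 0% = protein and probe with vehicle and 100% = probe without protein; strong numbers were not always called active; many hits fall short of the cut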
# CSC inhib: blocks cancer stem cells. AID 2717. inhibition, % at 7.5 µM. cancer stem cell-like cells viability, luminescence. actives 1.1% (n = 300,000);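 active = mean at 75% or more and at least half the replicates too; inconclusive = mean and replicates disagree; tested in HMLE shEcad cells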;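 also: 0% = median of negative and 100% = median of positive control wells; the first replicate is given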
# eIF4H inh retest: second read-out of eIF4H inh, no call of its own (marks repeat the call); inhibition, %; compound at 20 µM; confirmation average;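 mean of two retest wells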
# PABP polyA inh retest: also measured in PABP polyA inh; calls as there; inhibition, %; compound at 20 µM; confirmation repeats;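 mean of two retest wells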
# MT1-MMP act inh RFP: also measured in MT1-MMP act inh; calls as there; RFP signal change, %; measured here: RFP expression control read;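 0 = vehicle wells; hits needed this value within 50% of zero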
# Starred values were filed as active, the others as inactive; i = inactive; ? = inconclusive; nt = no result given.
SMILES,PABP polyA inh,UUG fidelity,Env fusion inh,MT1-MMP act inh,MT1-MMP act inh RFP,Rce1 inhib,eIF4H inh,CSC inhib,others
COc1cc(SC)ccc1C(=O)Nc1ccccn1,-4,-47,i,3,0,i,-8,-3,
Cc1cccc(C)c1NC(=O)CN(C)CC(=O)Nc1ccccc1Oc1ccccc1,5,nt,29,-5,-2,i,-10,-6,
Cc1ccc(S(=O)(=O)N2CCCC2C(=O)NCc2ccco2)cc1 (stereo unspecified),1,-5,-18,-1,0,i,8,-10,
FC(F)(F)c1cc(C(F)(F)F)c2ccc(N3CCOCC3)nc2n1,4,-14,-7,1,-4,i,4,-6,
Cc1ccc(/C(N)=N/OC(=O)COc2cccc3ccccc23)cc1,nt,-4,-9,0,4,nt,nt,nt,
COc1ccc(Cl)cc1NC(=O)C/C(C)=N/NC(=O)c1ccccc1Cl,3,-31,-10,-1,4,i,3,-17,
Cc1ccc(N)c([N+](=O)[O-])c1,nt,-10,nt,-2,4,nt,nt,-3,
COCCn1c(-c2ccccc2)nc2oc3ccccc3c(=O)c2c1=O,-4,16,-140,1,4,i,-5,-9,
O=C(N1CCN(Cc2ccc3c(c2)OCO3)CC1)C(Cl)(Cl)Cl,2,-2,-52,-4,-3,i,-1,11,
Cc1ccc2nc(N3CC(C)OC(C)C3)nc(-c3ccccc3)c2c1 (stereo unspecified),4,-5,4,0,-4,i,-3,2,
O=C(Nc1nc2cc3c(cc2s1)OCCO3)c1ccc([N+](=O)[O-])o1,4,-9,-89,7,-12,i,1,-13,
Cc1ccc(OCC(=O)N2CCc3ccccc3C2)c(Br)c1,2,8,-9,-4,-6,i,-4,-3,
C/C(=N\NC(=O)C1CCCC1)c1ccc(Cl)cc1Cl,19,-17,nt,-1,-1,i,-2,-17,
O=C(Nc1nc2ccccc2n1CCN1CCOCC1)c1cn(-c2ccccc2)nc1-c1ccccc1,6,-27,nt,-27,-29,i,-1,57,
CC(=O)c1ccc(-c2nc3ccccc3n2C)o1,7,-22,nt,3,2,i,2,1,
Cc1ccc(-n2nnnc2SCC(=O)c2ccc3c(c2)NC(=O)CO3)c(C)c1,7,-8,-17,-1,-3,i,-4,-6,
O=C(c1ccco1)N1CCN(C(=S)NC2CC3CCC2C3)CC1 (stereo unspecified),-8,nt,13,5,3,i,-4,7,
Cc1ccc(S(=O)(=O)N(Cc2n[nH]c(=S)n2-c2ccccc2)c2cccc(Cl)c2)cc1,10,nt,8,4,1,i,3,-11,
O=c1c2[nH]c3ccc(Cl)cc3c2ncn1Cc1ccccn1,-4,-10,nt,4,-1,i,-3,nt,
Nc1nc(C2C(=O)CCCC2=O)cs1,49,nt,nt,-30,5,i,41,-4,
Cc1ccnc(NC(=S)NC(=O)/C=C/c2ccco2)c1,9,nt,nt,-6,5,i,57,-9,eIF4H inh retest=1;PABP polyA inh retest=3
C=CCn1c(SCc2ccc(Cl)cc2)nc2c1c(=O)[nH]c(=O)n2C,-3,-19,nt,2,-4,i,2,8,
Cc1nc2c(-c3ccc(F)cc3)cnn2c2c1CCC2,17,nt,-37,2,6,i,3,-9,
CCCn1cc(CN2CCc3ccc(NC(=O)C4CCCO4)cc3C2)c(C)n1 (stereo unspecified),-8,-1,-10,-2,4,i,2,-12,
COc1ccc(C2(c3ccc(OC)cc3)NC(=O)N(CC(=O)N(C)C)C2=O)cc1,9,-3,-15,0,2,i,-16,-10,
CC(C)C[C@@H]1NC(=O)[C@H](C(C)C)NC(=O)c2cc([N+](=O)[O-])cc(I)c2NCC[C@@H](C(N)=O)NC1=O,1,nt,nt,nt,nt,i,-6,-7,
O=S(=O)(c1ccc(N2CCN(S(=O)(=O)c3ccc4c(c3)OCCO4)CC2)nc1)N1CCCC1,nt,-15,-278,2,-3,i,nt,nt,
CCCCC[C@H](O)/C=C/C1=C(CCCCCCC(=O)O)C(=O)CC1,-2,4,nt,6,9,i,33,0,
Cc1ccc(-c2ccc(SCC(=O)N3CCN(c4ccccc4)CC3)nn2)cc1,7,nt,-12,-9,2,i,-5,2,
Cc1cccc(C)c1NC(=O)C(=O)NCC1CCCN1S(=O)(=O)c1cccs1 (stereo unspecified),nt,nt,3,4,1,i,nt,11,
NC(=O)C(NN=C(c1ccccc1)c1ccccc1)c1ccccc1 (stereo unspecified),nt,-10,-15,0,2,nt,nt,nt,
COc1cccc(NC(=O)CN(C)C(=O)CCNS(=O)(=O)c2ccc(C)cc2)c1,nt,-8,-5,0,1,nt,nt,-10,
COc1ccc(C(=O)CSc2nc3cccnc3n2C)cc1,17,-14,19,1,-9,i,-4,15,
COc1ccc(CN(C)C[C@@H]2OCCCC[C@H](C)Oc3ccc(NC(=O)Cc4ccccc4)cc3C(=O)N([C@@H](C)CO)C[C@@H]2C)cc1,nt,15,-151,-2,-4,nt,nt,nt,
COCCNc1nnc(SC(C)C(=O)Nc2ccc(-c3nc4ccc(C)cc4s3)cc2)s1 (stereo unspecified),-3,-16,-41,2,-5,i,-8,?,
O=C(N/N=C/c1cccnc1)c1cccc(Br)c1,2,-34,6,2,-1,i,-2,-8,
O=C(NCc1ccc(Cl)cc1)C(=O)NCC1OCCN1S(=O)(=O)c1ccc2c(c1)OCCO2 (stereo unspecified),-1,-10,5,2,-4,i,-1,-5,
O=C(Nc1ccccc1C(=O)O)c1cc(S(=O)(=O)NCc2ccccc2)ccc1Cl,11,-7,-3,-3,-1,i,-16,nt,
O=C(COC(=O)Cc1ccsc1)NC1CCCCCC1,3,nt,nt,4,5,i,-8,-8,
COc1ccccc1N1CCN(C(=O)CSc2nc3ccccc3o2)CC1,3,nt,-6,1,8,i,-1,-3,

# Molecules listed so far that have bromine:
SMILES,PABP polyA inh,UUG fidelity,Env fusion inh,MT1-MMP act inh,MT1-MMP act inh RFP,Rce1 inhib,eIF4H inh,CSC inhib,others
Cc1ccc(OCC(=O)N2CCc3ccccc3C2)c(Br)c1,2,8,-9,-4,-6,i,-4,-3,
O=C(N/N=C/c1cccnc1)c1cccc(Br)c1,2,-34,6,2,-1,i,-2,-8,

# Taken from the entries so far, 2 compounds:
SMILES,PABP polyA inh,UUG fidelity,Env fusion inh,MT1-MMP act inh,MT1-MMP act inh RFP,Rce1 inhib,eIF4H inh,CSC inhib,others
COCCNc1nnc(SC(C)C(=O)Nc2ccc(-c3nc4ccc(C)cc4s3)cc2)s1 (stereo unspecified),-3,-16,-41,2,-5,i,-8,?,
O=C(N/N=C/c1cccnc1)c1cccc(Br)c1,2,-34,6,2,-1,i,-2,-8,

# The listing continues:
SMILES,PABP polyA inh,UUG fidelity,Env fusion inh,MT1-MMP act inh,MT1-MMP act inh RFP,Rce1 inhib,eIF4H inh,CSC inhib,others
COc1cccc(NC(=S)NCc2cccnc2)c1,11,nt,-26,6,8,i,2,-14,
CS(=O)(=O)N(CC(=O)Nc1ccccc1C(=O)NCc1ccco1)c1ccc2c(c1)OCCO2,1,nt,3,-5,-12,i,6,6,
CCC(=O)C1=C(N2CCCC2)CC(C)(C)CC1=O,-9,-17,nt,0,3,i,-4,-11,
O=C(COC(=O)c1cc(-c2ccccc2Cl)nc2ccccc12)Nc1ncc(C(F)(F)F)cc1Cl,-2,-17,-15,-3,-3,i,17,6,
COc1ccc(N(CC(=O)Nc2ccc(C)c(C)c2)S(=O)(=O)c2c(C)n[nH]c2C)cc1,-3,19,-15,3,-5,i,-4,-7,
Cc1ccc(-n2ncc3c(=O)[nH]cnc32)c(C)c1,4,-13,-267,-7,-9,i,-14,2,
O=C(Oc1ccc2c(=O)c(Oc3ccc4ccccc4c3)coc2c1)c1cncc(Br)c1,15,-21,-27,4,1,i,-9,10,
COC(=O)c1cc2ccsc2n1CC(=O)Nc1ccc(N(C)C)cc1,-1,nt,-33,-2,4,i,-6,-8,
Cc1oc2cc3oc(=O)c(CC(=O)NCCC(=O)O)c(C)c3cc2c1C,2,32,9,3,-1,i,-7,nt,
Cc1c(C(=O)NCc2ccccc2C(F)(F)F)sc(=O)n1Cc1ccc(F)cc1,nt,-18,-11,8,-1,nt,nt,nt,
CCCCN(CC)CCCNC(=O)c1csc2c1CCCCC2,-6,nt,8,1,2,i,0,-9,
COc1cccc(C(=O)Nc2c3c(nc4c2CCC4)CCCC3)c1,2,nt,-4,1,-3,i,2,6,
O=C(/C=C/c1ccccc1Cl)c1ccc(O)cc1,4,-5,1,-6,-10,i,4,25,
CCOc1cc(C(=O)Nc2ccc(S(=O)(=O)Nc3onc(C)c3C)cc2)cc(OCC)c1OCC,nt,-21,16,3,0,nt,nt,-6,
COc1cc2oc(=O)cc(-c3ccc(-c4ccc(F)c(Cl)c4)cc3)c2c(OC)c1OC,nt,9,18,3,-6,nt,nt,nt,
CCCSC1=C(C#N)C(c2cccnc2)C(C(=O)OCC)=C(c2ccccc2)N1 (stereo unspecified),-4,-51,nt,-3,-4,i,2,1,
COC(=O)c1ccc(NC(=O)Nc2ccc(F)c(Cl)c2)cc1,8,-16,16,4,-5,i,1,-3,
CCN1C(=O)CC(N2CCC(C(=O)N3CCOCC3)CC2)C1=O (stereo unspecified),2,-9,nt,-5,0,i,1,-20,
CC(C)N(Cc1nc(-c2ccc(Cl)cc2)no1)C(=O)/C=C/c1ccccc1,-4,-1,nt,-1,-4,i,7,20,
Cc1ccc2cc3cc(C(=O)N(CC(=O)NC4CCCC4)c4cccc(C)c4C)sc3nc2c1,2,-16,nt,-27,-23,i,-10,21,

# The list goes on; the last 3 above are carried over.
SMILES,PABP polyA inh,UUG fidelity,Env fusion inh,MT1-MMP act inh,MT1-MMP act inh RFP,Rce1 inhib,eIF4H inh,CSC inhib,others
CCN1C(=O)CC(N2CCC(C(=O)N3CCOCC3)CC2)C1=O (stereo unspecified),2,-9,nt,-5,0,i,1,-20,
CC(C)N(Cc1nc(-c2ccc(Cl)cc2)no1)C(=O)/C=C/c1ccccc1,-4,-1,nt,-1,-4,i,7,20,
Cc1ccc2cc3cc(C(=O)N(CC(=O)NC4CCCC4)c4cccc(C)c4C)sc3nc2c1,2,-16,nt,-27,-23,i,-10,21,
COc1ccc2c(c1)[nH]c1c(=O)n(CCC3=CCCCC3)cnc12,-6,-17,nt,9,2,i,-3,-4,
CCC(=O)Nc1cc(C(=O)O)ccc1Sc1ccc(Cl)cc1,23,-11,-3,2,3,i,-2,8,
COc1ccccc1OCCn1cc(/C=N/n2cnnc2)c2ccccc21,-4,-22,-30,2,-8,i,-2,11,
CCOC(=O)c1nnn(-c2nonc2NC(C)=O)c1C,5,-14,nt,4,3,i,-1,-2,
O=C(CSc1cccc2cccnc12)OCC(=O)c1ccc(Br)cc1,12,-9,nt,-11,0,i,16,7,
O=C(Cn1cnc2ccccc2c1=O)NNC(=O)c1ccccc1F,nt,-8,1,1,-2,nt,nt,-14,
Cn1c(OCc2ccc3c(c2)OCO3)nc2c1c(=O)n(Cc1cccc(Cl)c1)c(=O)n2C,nt,-48,nt,-2,-1,i,nt,0,
COc1ccc(-c2c(C)cc3oc(=O)cc(-c4ccccc4)c3c2C)cc1,nt,-12,-51,-3,-7,nt,nt,nt,
COc1ccc(C(=O)Nc2ccnn2C2CCN(C(=O)c3cccnc3)CC2)cc1,-6,-4,3,-3,-2,i,-9,8,
CCN(CC)c1ccc(S(=O)(=O)N2CCCCC2)cc1NC(=O)C1=COCCO1,nt,-20,?,-1,-4,i,nt,-8,
Cn1nnnc1SCC(=O)Nc1ncc(Cl)cc1Cl,nt,-18,-358,4,0,i,nt,-8,
COc1ccc(NC(=O)c2c(N)no[n+]2[O-])cc1,9,-19,-5,-3,-5,i,6,103*,
